# UCH37 inh = human UCH37 deubiquitinating enzyme inhibition | Q9Y5K5 | inhibition, % (no concentration beside the values) | 330,000 tested, 0.33% active | AID 588478 | purified proteasome/UCH37, Ub-AMC cleavage fluorescence;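 active means mean of two replicates above 20%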;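 further: 0% = compound-free wells with enzyme and 100% = wells lacking proteasome; stock transfer was 100 nL into about 20 µL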
#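 assay system = human UCH37 enzyme supplied as purified proteasome complex | amount = proteasome at 0.15 nM in the dispensed enzyme solution | schedule = 30 min compound-proteasome preincubation then 25 min substrate reaction, room temperature | measured by = fluorescence, ex 355 nm, em 460 nm | benchmarks = no-proteasome wells (full inhibition) and compound-free wells (no inhibition)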
# Bfl-1 A1 inh = inhibitors of the anti-apoptotic protein A1, read as caspase activation; caspase activation, % (no concentration beside the values); 330,000 tested, 0.066% active; AID 2462; MEF A1-2A-BIM cells, Caspase-Glo 3/7 luminescence, 3 h; percent of clofoctol response, vehicle zero;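 active means over half of replicate activation scores above 10%, or exactly half above 10 with the replicate mean above 10; inconclusive means replicate mean below 10 yet half the replicates above 10; inactive means over half of replicates below 10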;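 further: wells of about 30 µL received 50 nL stock; many hits fall short of the cut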
# LANA-H2B inh = blocks KSHV LANA binding to histone H2A/H2B | inhibition, % (test concentration not listed) | Q9QR71 | 320,000 tested, 0.6% active | cell-free LANA-H2A/H2B peptide, fluorescence polarization | AID 2629; in the data active means inhibition mostly above about 10%, no sharp cut-off; inactive means mostly below about 6.7%;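 further: stock transfer was 7.5 nL into about 10 µL; 0% = median of vehicle wells and 100% = median of positive control wells; one replicate is shown; the record names a cut of 25% in any replicate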
# Target sequence (Q9QR71 whole entry, looked up): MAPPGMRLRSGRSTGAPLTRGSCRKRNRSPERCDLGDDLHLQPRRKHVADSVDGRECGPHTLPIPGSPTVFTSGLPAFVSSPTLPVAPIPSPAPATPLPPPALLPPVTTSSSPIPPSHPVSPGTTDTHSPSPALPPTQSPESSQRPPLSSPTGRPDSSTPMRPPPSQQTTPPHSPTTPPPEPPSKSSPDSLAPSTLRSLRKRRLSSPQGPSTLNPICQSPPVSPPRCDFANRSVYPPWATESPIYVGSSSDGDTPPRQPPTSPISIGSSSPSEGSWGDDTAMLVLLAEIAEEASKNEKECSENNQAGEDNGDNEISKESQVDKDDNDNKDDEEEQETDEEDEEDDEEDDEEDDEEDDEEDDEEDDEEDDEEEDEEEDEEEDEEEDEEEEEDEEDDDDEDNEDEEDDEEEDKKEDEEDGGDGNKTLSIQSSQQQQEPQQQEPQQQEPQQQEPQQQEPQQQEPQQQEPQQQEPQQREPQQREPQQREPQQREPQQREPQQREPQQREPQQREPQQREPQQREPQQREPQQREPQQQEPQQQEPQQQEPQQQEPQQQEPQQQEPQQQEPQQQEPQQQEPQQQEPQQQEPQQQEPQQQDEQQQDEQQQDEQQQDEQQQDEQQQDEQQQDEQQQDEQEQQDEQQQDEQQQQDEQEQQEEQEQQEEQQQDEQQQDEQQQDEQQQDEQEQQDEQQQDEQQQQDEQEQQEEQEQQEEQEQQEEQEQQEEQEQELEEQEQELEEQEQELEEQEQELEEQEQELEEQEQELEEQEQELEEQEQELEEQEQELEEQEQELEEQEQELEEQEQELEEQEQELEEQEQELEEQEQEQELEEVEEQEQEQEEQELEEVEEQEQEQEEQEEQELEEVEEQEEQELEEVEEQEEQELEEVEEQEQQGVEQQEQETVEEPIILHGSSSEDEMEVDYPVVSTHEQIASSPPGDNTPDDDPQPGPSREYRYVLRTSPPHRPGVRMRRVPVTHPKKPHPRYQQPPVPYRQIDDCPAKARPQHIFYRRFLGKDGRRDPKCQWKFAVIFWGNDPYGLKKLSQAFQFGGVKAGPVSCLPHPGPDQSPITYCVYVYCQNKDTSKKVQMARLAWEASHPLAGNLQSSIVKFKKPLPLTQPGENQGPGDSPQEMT
# B2AR ag = agonists of human beta-2 adrenergic receptor inducing internalization; P07550; Am2.2-beta2AR cells, FAP receptor internalization, flow cytometry; reference of the scale not given here; response, % (concentration not given with the values); 340,000 tested, 0.43% active;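 active means response above a set limit, near 3 SD of response in nonfluorescent compounds, cut at about 42% in these data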;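 further: stock transfer was 100 nL into about 11 µL; a reference agonist was the positive control; negative values mostly stem from fluorescent compounds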
# Beta cell apopt = beta cell apoptosis inhibition | 300,000 tested, 0.8% active | INS-1E cytokine-induced death, ATP luminescence, 48 h; percent of positive-control rescue, neutral wells zero | protection from apoptosis, % (test concentration not listed);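 active means all replicates at 75% or more, or half of them and the mean; inconclusive means half reach 75% but not the mean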;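 further: 0% = cytokine-treated negative control wells and 100% = positive control rescue; higher means more ATP so stronger rescue from cytokine killing; wells of about 40 µL received 100 nL stock; the first replicate is given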
# T cruzi inh = blocks replication of Trypanosoma cruzi | AID 1885 | T. cruzi beta-gal in NIH3T3, luminescence, 90 h | 300,000 tested, 1.4% active | inhibition, % (concentration not given with the values);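 active means mean inhibition across valid replicates above about 55%, limit read from the data; inconclusive means mean below that limit but half or more replicates reach it; inactive means mean below it, under half of replicates reach it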;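 further: signal also drops with host cell toxicity which is not excluded here; 0% = plate median of DMSO wells and 100% = zero luminescence signal; higher percent means less beta-gal luminescence so fewer parasites; stock transfer was 50 nL into about 50 µL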
# Calb FLC = affects C. albicans growth with fluconazole; C. albicans CaCi-2 (fluconazole-resistant clinical isolate) + fluconazole, Alamar Blue growth, 48 h; 300,000 tested, 0.57% active; growth inhibition, % (no concentration beside the values);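 active means most replicates above 75%; inconclusive means exactly half above 75%; inactive means most below 75%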;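 further: all wells also contain fluconazole at 8 µg/ml as a sub-toxic cotreatment; 0% = median of DMSO wells and 100% = median of geldanamycin control wells; wells of about 8 µL received 7.5 nL stock; the first replicate is given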
# RanGTP-Impb inh = inhibitors of RanGTP-importin-beta interaction, primary screen, biochemical, FRET, CFP-Ran, YFP-importin-beta, homogeneous. inhibition, % (no concentration beside the values). 300,000 tested, 1.1% active. cell-free CFP-Ran/YFP-importin-beta FRET ratio;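 active means most replicates above 15%; inconclusive means exactly half above 15%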;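 further: 0% = DMSO wells and 100% = Ran loaded with GDP instead of GTP; wells of about 40 µL received 100 nL stock; the first replicate is given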
# The depositor's hits bear a star; ? = inconclusive; · = not tested or not shown.
SMILES,UCH37 inh,Bfl-1 A1 inh,LANA-H2B inh,B2AR ag,Beta cell apopt,T cruzi inh,Calb FLC,RanGTP-Impb inh
Cc1ccc(-c2nnc(C)c(N3CCCC3)n2)cc1,2.3,-0.4,-2.5,-13,-6,4,-7,?
COC(=O)c1cccc(COC(=O)c2cc3ccccc3oc2=O)c1,-6.6,-0.3,-1.4,2,-2,-1,-2,7.2
O=C(C[C@H]1C/C=C\CC[C@H](Cc2ccc(F)cc2)C(=O)O[C@@H](c2ccccc2)CNC1=O)N[C@H](CO)Cc1ccccc1,1.0,1.4,-14,11,12,·,·,·
CCOC(=O)C(NC(=O)CC)(Nc1ccccc1OC)C(F)(F)F (configuration not stated),-4.8,0.1,1.2,1,-1,-4,3,-0.6
O=C(Oc1ccc(/C=N/O)cc1)c1ccccc1Cl,·,-6.7,0.1,5,-5,-15,4,-3.0
O=[N+]([O-])c1ccc(/C([O-])=C(/C(=S)NCc2ccco2)[n+]2ccccc2)cc1,6.3,0.7,3.8,-7,5,16,1,-0.7
Nc1nonc1-c1nc2ccccc2n1CC(=O)Nc1ccccc1,2.8,0.4,-0.2,-4,1,-4,-8,-3.9
Cc1nnsc1-c1c(C(=O)N2CCOCC2)c(C)nn1-c1ccccc1,1.3,1.1,-2.5,0,8,-4,-7,2.2
COC(=O)c1ccc(CSc2nnc(N)s2)cc1,3.0,1.4,-2.0,3,-4,5,-6,-1.7
Cc1cccc(NC(=S)N(CCN2CCOCC2)Cc2ccccc2F)c1,-0.1,-0.1,-0.4,-2,0,-23,22,3.3
COC(=O)CCCC1=CC2=CC(=O)C(C)(OC(=O)c3ccc(Cl)nc3)C(=O)C2=CO1 (configuration not stated),·,0.0,18,·,2,-12,0,-9.0
COCc1[nH]nc2c1C(c1ccc(F)cc1F)C(C#N)=C(N)O2 (configuration not stated),2.2,0.1,3.7,2,-5,-18,-1,0.9
COc1ccc(OC)c(NC(=O)C(C)N2c3cccc4cccc(c34)S2(=O)=O)c1 (configuration not stated),-25,0.2,-5.2,-2,3,15,33,1.3
CC(=O)N1c2ccc(S(=O)(=O)N3CCCC3)cc2CC1C(=O)NCc1ccccc1F (configuration not stated),0.9,-0.2,-0.2,-11,·,11,-10,1.5
Cc1ccc(-n2c(-c3ccc(Br)cc3)c[n+]3c2CCc2ccc4cccnc4c2-3)cc1,1.2,-0.2,1.6,-5,133*,60*,99*,2.7
Cc1cc(=O)[nH]c2nnc(-c3ccc(Cl)cc3)n12,4.6,-4.2,4.6,2,·,-16,-14,?
O=C(CSc1nc(-c2ccco2)cc(C(F)(F)F)n1)NCCN1CCOCC1,7.0,0.3,5.5,-14,-1,-1,-7,-1.3
CCc1nnc(NC(=O)CCC(=O)N2CCN(CCc3ccccc3)CC2)s1,4.9,0.0,1.5,-22,0,6,-5,2.4
N#CCCNC(=O)CCN1CCOCC1,1.7,-0.5,-1.0,-3,·,-12,2,-1.1
Cc1ccc(NC2=CC(=O)CC(c3ccco3)C2)c(N)c1 (configuration not stated),-0.3,0.7,1.7,12,3,5,?,0.4
CCN(C1CCCCC1)S(=O)(=O)c1ccc(C(=O)O)cc1,3.2,0.4,-0.4,-4,-1,-7,-3,2.0
COC(=O)c1ccc(N2CCN(C)CC2)c(NC(=O)COc2ccccc2Cl)c1,-4.0,0.7,-3.1,-10,-2,38,-1,3.5
CCOC(=O)CSc1nnc(-c2cccc(Cl)c2)n1CC,2.7,0.3,2.1,0,·,-6,-6,0.4
O=C(Cc1ccccc1)Nc1ccc2oc(=O)ccc2c1,-38,2.0,3.1,5,-5,-13,-4,4.2
O=C(NCCCc1ccccc1)C(=O)NCC1OCCN1S(=O)(=O)c1ccccc1 (configuration not stated),3.5,0.2,-7.2,-3,-5,18,-10,0.7
# Additional entries.
SMILES,UCH37 inh,Bfl-1 A1 inh,LANA-H2B inh,B2AR ag,Beta cell apopt,T cruzi inh,Calb FLC,RanGTP-Impb inh
COc1ccc(/C=N/NC(=O)c2ccccc2F)cc1CN1CCN(c2ccc(F)cc2)CC1,·,0.4,0.4,6,-1,·,·,·
CS(=O)(=O)c1ccc2nnn(OCC(=O)Nc3ccc(Br)cc3Br)c2c1,3.8,0.3,·,-6,-5,?,13,3.0
COc1ccc(/C=N/NC(=S)Nc2ccccc2)cc1COc1ccccc1F,·,0.7,1.1,·,8,-12,8,2.5
CCOc1ccc(NS(=O)(=O)c2cc3c(cc2C)N(C)CCO3)cc1,5.4,-0.2,3.7,15,4,-7,-2,4.4
CCOc1ccc(-c2nnn(CC(=O)c3cc(OC)ccc3OC)n2)cc1,-101,0.1,5.6,16,-7,-18,0,?
O=C(CNc1n[nH]c(=O)[nH]c1=O)N/N=C/c1ccccc1,·,-0.1,3.8,·,2,-10,9,1.0
CCc1nc(C)c(C#N)c2cc(OC)c(OC)cc12,-3.9,-0.2,6.1,15,2,5,-2,2.4
Nc1cc(N)nc(SCc2cccc(F)c2)n1,4.9,0.4,-5.0,-6,·,-20,93*,2.0
Cc1cc(NC(=O)COC(=O)c2ccc(C)c(C)c2)no1,4.9,1.2,-1.6,5,-5,·,·,·
FC(F)(F)c1cccc(-c2nc(COc3ccc(Cl)cc3Cl)no2)c1,6.0,0.7,5.1,-2,-10,1,-3,1.7
Cc1ccc(Nc2nc3nonc3[nH]c2=O)cc1C,10,-0.4,-4.8,2,7,-17,14,-0.2
CN(c1ccc(OCC(=O)N2CCN(c3ccc(F)cc3)CC2)cc1)S(=O)(=O)c1cccs1,1.2,0.8,-2.6,0,14,15,-36,-1.9
CC1(C)C2CC=C(/C=N/NC(=O)C(N)=O)C1C2 (configuration not stated),·,0.5,2.6,-6,-6,-3,-6,1.5
Cc1cccc(-c2nnc(SCC(=O)C(C)(C)C)n2C)c1,4.4,2.4,-0.4,-1,-2,0,-4,-1.5
CCCCCCOc1ccc(N2C(=O)CC(S/C(N)=N/N=C(\C)c3cccs3)C2=O)cc1 (configuration not stated),·,-0.1,0.7,1,3,13,13,0.1
CC(C)(C)NC(=O)NC(=O)COC(=O)CNS(=O)(=O)/C=C/c1ccccc1,2.5,?,-2.3,2,-7,8,-25,-4.7
Cc1cnc(C(=O)Nc2cc(F)ccc2C)cn1,0.4,-1.0,-8.2,10,2,-6,-2,-1.6
Cc1ccc(-c2nc3c(c(=O)[nH]c(=O)n3CC(C)C)n2CC(C)C)cc1[N+](=O)[O-],3.6,0.4,-5.4,2,14,58*,24,7.6
Cn1c(=O)n(C)c2cc(S(=O)(=O)N3CCCCC3)ccc21,1.1,0.6,0.8,6,-1,4,1,-3.0
COc1ccc(-c2csc(/C(C#N)=C\c3ccc(OC)c([N+](=O)[O-])c3)n2)cc1,-7.2,0.3,-2.2,3,8,40,11,-8.2
COc1ccc(Cc2nc3ccc(C(=O)NC(C)C)cc3o2)cc1,·,-2.1,-1.3,0,-3,-7,-7,-2.0
CCOC(=O)c1cccc(NC(=O)CSc2nnc(C)n2Cc2ccccc2)c1,5.0,-1.6,-4.3,4,-2,-6,5,1.9
CCC1CCCCN1S(=O)(=O)c1ccc(NC(=O)c2nc(S(C)(=O)=O)ncc2Cl)cc1 (configuration not stated),·,11*,-4.7,32,108*,40,-7,3.7
O=C(COc1ccc(Br)cc1Cl)NC(=S)Nc1ccccn1,1.5,0.1,4.1,7,-7,-21,-4,0.2
CCn1cc(C(=O)NC2CCCc3c2cnn3-c2cccc(C)c2C)cn1 (configuration not stated),·,0.9,-5.6,-2,·,-38,0,2.3
# The results go on:
SMILES,UCH37 inh,Bfl-1 A1 inh,LANA-H2B inh,B2AR ag,Beta cell apopt,T cruzi inh,Calb FLC,RanGTP-Impb inh
CCc1ccc(S(=O)(=O)N2CCN(Cc3ccco3)CC2)cc1,·,-0.2,-0.6,-5,·,3,-5,-3.0
COc1cc(-c2cc3nc(C)c(C)c(=O)n3[nH]2)cc(OC)c1OC,-1.5,1.4,4.9,-3,1,-15,1,-1.8
O=c1cc(CO)oc2ccccc12,-1.3,-0.6,-1.7,-6,2,·,·,·
CC1=C(C(=O)OC2CCC(C)CC2)C(c2ccc(O)c([N+](=O)[O-])c2)NC(=O)N1 (configuration not stated),4.8,0.9,3.8,-1,2,-20,2,2.6
O=C(c1ccoc1)N1CCC2(CC1)Oc1ccc(F)cc1C(=O)C21CC(c2cccnc2)=NO1 (configuration not stated),1.8,-0.6,-7.2,-13,-3,3,51,4.8
Cc1ccc(S(=O)(=O)N2CCOCC2)cc1C(=O)OCC(=O)N1CCCCC1,4.6,0.4,-10,3,0,·,·,·
[O-]/[N+](=C\c1ccco1)c1ccc(Cl)cc1,9.4,0.4,-6.1,11,1,-9,-1,-3.3
Cc1ccc(C(=O)Nc2ccncc2)c(Cl)c1,1.6,0.4,0.6,2,-2,-1,-4,-4.5
COc1cc(C(=O)NCc2nnc(SCC(=O)c3ccccc3)o2)cc(OC)c1OC,3.6,0.2,0.5,5,-5,1,3,0.6
Cc1ccc2[nH]cc(C(=O)CN3CCC4(CC3)OCCO4)c2c1,1.9,-0.9,2.3,15,6,9,-3,1.3
O=[N+]([O-])c1ccc(N2CCCCC2)nc1,5.8,0.5,1.3,-1,-5,3,0,2.6
CCOc1ccc(/C=C2\SC(=S)N(C(C(=O)O)c3ccccc3)C2=O)cc1OC (configuration not stated),7.8,-0.4,-10,5,-1,-1,9,-23
O=C1C2C3C=CC(C2C(=O)N1c1cccc(O)c1)C1C2C(=O)N(c4cccc(O)c4)C(=O)C2C31 (configuration not stated),0.8,0.4,-2.1,-3,-4,-4,30,-0.8
Cc1cc(C(F)F)n2nc(C(=O)Nc3ccccc3F)nc2n1,0.5,0.7,2.6,-13,·,2,4,-3.8
COc1cc(C(=O)Nc2c(C)cc(C)cc2C)c([N+](=O)[O-])cc1OC,5.4,0.4,2.5,8,3,-4,3,2.3
CCOc1ccccc1NC(=O)c1oc2ccccc2c1NC(=O)C1CCCO1 (configuration not stated),-25,1.4,-5.4,0,7,37,19,4.6
COC(=O)c1cc(NC(=O)COC(=O)C2COc3ccccc3O2)cc(C(=O)OC)c1 (configuration not stated),2.7,-2.2,0.8,6,-5,·,·,·
Cn1c(CSc2nc3ccccc3s2)nnc1SCC(=O)NCc1ccccn1,0.8,0.3,-1.9,-5,-7,-1,0,-0.2

# Compound profiles, from the list above. Screens in order: UCH37 inh	Bfl-1 A1 inh	LANA-H2B inh	B2AR ag	Beta cell apopt	T cruzi inh	Calb FLC	RanGTP-Impb inh
# `Cc1ccc2[nH]cc(C(=O)CN3CCC4(CC3)OCCO4)c2c1` is listed with 1.9	-0.9	2.3	15	6	9	-3	1.3
# `COc1cc(C(=O)NCc2nnc(SCC(=O)c3ccccc3)o2)cc(OC)c1OC` is listed with 3.6	0.2	0.5	5	-5	1	3	0.6
# `O=c1cc(CO)oc2ccccc12` is listed with -1.3	-0.6	-1.7	-6	2	·	·	·
# `CC1=C(C(=O)OC2CCC(C)CC2)C(c2ccc(O)c([N+](=O)[O-])c2)NC(=O)N1` (configuration not stated) is listed with 4.8	0.9	3.8	-1	2	-20	2	2.6
# `O=C(c1ccoc1)N1CCC2(CC1)Oc1ccc(F)cc1C(=O)C21CC(c2cccnc2)=NO1` (configuration not stated) is listed with 1.8	-0.6	-7.2	-13	-3	3	51	4.8

# High-throughput results (PubChem BioAssay)
